FGF22 binding: shifts melting point of recombinant human FGF22; Q9HCT0; recombinant FGF22 thermal shift, SYPRO orange fluorescence; percent of sucrose octasulfate shift, DMSO zero; calls only at 9.99 µM; 340,000 tested, 1.5% active; AID 651658;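 active = melting point raised past a set limit in the mean and every replicate; inconclusive = no clear call; three in four hits are not shown here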
Target sequence (Q9HCT0 whole entry, looked up): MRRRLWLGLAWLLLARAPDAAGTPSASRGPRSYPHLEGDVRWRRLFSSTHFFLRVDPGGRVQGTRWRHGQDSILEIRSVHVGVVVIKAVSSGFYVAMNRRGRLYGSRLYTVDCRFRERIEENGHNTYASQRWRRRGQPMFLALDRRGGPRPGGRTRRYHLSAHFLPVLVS
rRNA inh HTS: selective bacterial rRNA inhibition in E. coli. E. coli WT GFP vs humanized-ribosome RFP mutants, fluorescence, 24 h; stronger effect = lower value; DMSO median 0, no signal -100. GFP signal change (wild-type ribosome), % (no concentration beside the values). 350,000 tested, 1.6% active;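 active = significant combined selectivity score with lowered wild-type GFP, culture density cut under 30%, mutant RFP and density less affected; inactive = any of these conditions unmet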; also: one replicate is shown; some compounds called inactive have numbers as strong as hits
MLL AF4-AF9 inh: blocks AF4 peptide binding to human AF9 | AID 651704 | AlphaScreen, biotin-AF4 peptide binding to FLAG-AF9 | 350,000 tested, 0.47% active | inhibition, % at 10 µM;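 active = every replicate reaching a set inhibition limit, whatever the replicate mean, cut at about 25% in these data; inconclusive = mean inhibition reaches that limit but some replicates miss it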;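 also: 0% = plate neutral control median and 100% = total signal loss; the record names both 10 and 1 µM as test concentration; the first replicate is given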
Target sequence (P42568 whole entry, looked up): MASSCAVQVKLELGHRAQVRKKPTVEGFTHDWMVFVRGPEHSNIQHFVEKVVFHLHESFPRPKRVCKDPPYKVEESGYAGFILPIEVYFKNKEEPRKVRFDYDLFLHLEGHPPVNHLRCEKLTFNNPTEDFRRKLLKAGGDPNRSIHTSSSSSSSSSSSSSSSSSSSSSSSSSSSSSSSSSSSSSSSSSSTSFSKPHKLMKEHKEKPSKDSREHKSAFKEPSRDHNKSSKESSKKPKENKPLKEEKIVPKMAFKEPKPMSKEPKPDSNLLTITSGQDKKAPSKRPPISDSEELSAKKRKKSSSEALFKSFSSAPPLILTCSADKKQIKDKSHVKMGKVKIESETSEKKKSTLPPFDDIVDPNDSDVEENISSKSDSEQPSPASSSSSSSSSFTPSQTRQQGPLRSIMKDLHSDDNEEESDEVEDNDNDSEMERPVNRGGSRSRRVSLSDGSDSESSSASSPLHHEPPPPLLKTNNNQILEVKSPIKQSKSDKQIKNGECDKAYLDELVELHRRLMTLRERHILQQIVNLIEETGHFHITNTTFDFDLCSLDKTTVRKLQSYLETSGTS
rRNA inh HTS OD600: further read-out of rRNA inh HTS, marked with its call; OD600 change, %; measured here: OD600 growth;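 optical density of the mix in the first replicate; 0 = DMSO median and -100 = no signal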
rRNA inh HTS RFP: recorded beside rRNA inh HTS, whose call it bears; RFP signal change, %; measured here: RFP humanized mutant strains;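 first replicate; 0 = DMSO median and -100 = no signal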
Numbers without * were called inactive; i = inactive; ? = inconclusive; & = joins results of further samples. This is a subset. The share of hits here may be higher or lower than overall.

Assay codes – A = FGF22 binding; B = rRNA inh HTS; C = rRNA inh HTS OD600; D = rRNA inh HTS RFP; E = MLL AF4-AF9 inh
> COc1ccc(C(=O)COC(=O)c2cnc(C)cn2)cc1OC
  A: i	B: -3	C: 1	D: -0.6	E: -0.6

> CC(C)CC#Cc1ccc2c(c1)O[C@@H](CN(C)C(=O)c1cnccn1)[C@@H](C)CN([C@@H](C)CO)S2(=O)=O
  A: i	B: 1	C: -2	D: -1.4	E: 1.6

> COc1cccc(-c2cn(CC[C@@H]3CC[C@H](NC(=O)CN(C)C)[C@@H](CO)O3)nn2)c1
  A: i	B: 2	C: 4	D: -0.1	E: ?

> COc1cccc(CNC(=O)C[C@H]2CC[C@H](NS(=O)(=O)c3ccccc3OC)[C@H](CO)O2)c1
  A: i	B: -1	C: 2	D: -0.9	E: -2.0

> C[C@@H]1CN([C@@H](C)CO)C(=O)c2cccc(NC(=O)C3CC3)c2O[C@@H]1CN(C)S(C)(=O)=O
  A: i	B: 5	C: 6	D: 2.4	E: -9.3

> O=C(C[C@H]1C=C[C@H](NC(=O)CC2CC2)[C@@H](CO)O1)NCc1ccc(-c2ccccc2)cc1
  A: i	B: -4	C: -1	D: -1.3	E: -0.5

> O=C(C[C@H]1CC[C@H]2[C@@H](COC[C@H](O)CN2Cc2ccc3c(c2)OCO3)O1)N1CCOCC1
  A: i	B: 2	C: 8	D: -6.1	E: -1.3

> CCCC#Cc1ccc2c(c1)O[C@@H](CN(C)C(=O)c1ccccc1)[C@@H](C)CN([C@@H](C)CO)S2(=O)=O
  A: i	B: -3	C: -11	D: 6.5	E: 4.5

> C[C@@H]1CN([C@@H](C)CO)S(=O)(=O)c2ccc(C3=CCCCC3)cc2O[C@H]1CN(C)CC1CCCC1
  A: i	B: -1	C: -8	D: 12	E: 6.1

> Cc1ccc(S(=O)(=O)N2CC3(O)CN(C(=O)OC(C)C)N(C(=O)OC(C)C)CC3(OC(=O)NCc3ccco3)C2)cc1 (configuration not stated)
  A: i	B: -2	C: -11	D: 4.5	E: 1.5

> CC(C)(C)n1nnnc1C(c1cc2ccccc2o1)N1CCCCC1 (configuration not stated)
  A: i	B: -23	C: -35	D: -8.6	E: -0.1

> C[C@H](CO)N1C[C@H](C)[C@H](CN(C)Cc2cccc(C(F)(F)F)c2)Oc2ncc(C#Cc3ccccc3)cc2C1=O
  A: i	B: -1	C: 0	D: -0.1	E: 1.7

> Cc1ccc(S(=O)(=O)Nc2ccc3c(c2)C(=O)N([C@H](C)CO)C[C@@H](C)[C@H](CN(C)C(=O)Nc2c(C)noc2C)O3)cc1
  A: i	B: -1	C: 11	D: -1.4	E: 0.4

> COCCN(C[C@@H]1[C@@H](c2ccccc2)[C@H](CO)N1C(C)=O)C(=O)c1cccnc1
  A: i	B: 6	C: 6	D: -1.7	E: 0.7

> CCc1nc2c(OCC(=O)C(C)(C)C)cccn2c1N(C)C(=O)Nc1ccccc1OC
  A: i	B: -2	C: -1	D: -2.2	E: 1.4

> CCOC(=O)[C@]12CCC=C1N(CCC1=CCCCC1)C(=O)[C@H](CC(=O)N1CCCC1)C2
  A: i	B: 11	C: 13	D: 2.6	E: -5.0

> COc1ccc2c3c(n(C)c2c1)[C@@H](CO)N(C(=O)Nc1c(C)noc1C)CC31CN(CC2CC2)C1
  A: i	B: 3	C: 9	D: -2.2	E: 1.5

> O=C(C[C@@H]1C[C@H]2c3cc(NC(=O)C4CCC4)ccc3O[C@H]2[C@@H](CO)O1)NCc1ccccc1F
  A: i	B: -1	C: 1	D: 1.3	E: 0.2

> Cc1noc(C)c1S(=O)(=O)Nc1ccc2c(c1)CC(=O)N([C@H](C)CO)C[C@H](C)[C@H](CN(C)S(=O)(=O)c1c(C)noc1C)O2
  A: i	B: 0	C: -7	D: 0.5	E: -1.6

> CC1CC(OC(=O)C2CCN(S(=O)(=O)c3ccc(F)cc3)CC2)C(=O)O1 (configuration not stated)
  A: i	B: 0	C: 3	D: -1.9	E: 2.0

> COc1ccc(CN(C)C[C@H]2Oc3ccc(NC(=O)NC4CCCCC4)cc3C(=O)N([C@@H](C)CO)C[C@@H]2C)cc1
  A: i	B: 9	C: 12	D: 1.0	E: -2.6

> O=C(Nc1cccc(C(F)(F)F)c1)C1Cc2c(-c3cccc(F)c3)ccnc2O1 (configuration not stated)
  A: i	B: -23	C: -28	D: 41	E: -3.5

> O=S1(=O)CC(N2CCCC2)CN1Cc1ccc(F)cc1 (configuration not stated)
  A: i	B: 11	C: 4	D: 6.2	E: -1.3

> CCOc1ccc(-c2cc(C(=O)Nc3cc(OC)c(OC)c(OC)c3)[nH]n2)c(C)c1
  A: i	B: 0	C: 11	D: 1.7	E: 0.1

> COc1ccccc1CNc1nc(NCCNC(C)=O)c2sccc2n1
  A: i	B: 9	C: 13	D: 0.9	E: -3.0

> C[C@H]1CN([C@@H](C)CO)C(=O)c2cc(/C=C/c3ccccc3)cnc2O[C@H]1CN(C)C(=O)NC1CCCCC1
  A: i	B: -6	C: -9	D: 2.6	E: 1.8

> CC[C@@H]1C=C(C(=O)O)[C@H](c2ccc(Br)cc2)N1S(=O)(=O)c1ccc(C)cc1
  A: i	B: -21	C: -26	D: -4.2	E: -4.7

> CSc1ccc(CN2CCC2(C)C(=O)Nc2ccc(C)c(O)c2)cc1 (configuration not stated)
  A: i	B: 3	C: 10	D: 4.0	E: -0.6

> CN1c2ccc(-c3ccccc3F)cc2[C@H]2[C@H](CCN2S(=O)(=O)c2ccccc2F)[C@@H]1CO
  A: i	B: -12	C: -46	D: 29	E: 0.4

> CC(C)NC(=O)N(C)C[C@@H]1Oc2cc(Br)ccc2S(=O)(=O)N([C@@H](C)CO)C[C@@H]1C
  A: i	B: 2	C: 7	D: -1.1	E: -1.5

> C[C@H](CO)N1C[C@H](C)[C@@H](CN(C)CC2CCCCC2)Oc2ccc(NS(=O)(=O)c3ccccc3)cc2CC1=O
  A: i	B: -10	C: -51	D: 28	E: 5.9

> C/C=C/c1ccccc1[C@H]1[C@@H](CO)N(C(=O)Nc2cccc(F)c2)[C@H]1C#N
  A: i	B: -51	C: -75	D: -14	E: 2.0

> C[C@H](CO)N1C[C@H](C)[C@@H](CN(C)Cc2ccncc2)OCc2ccccc2-c2ccccc2C1=O
  A: i	B: 1	C: 3	D: -2.7	E: -3.7

> COc1ccc(C2=Nc3ccccc3N(C(=O)Cc3cc(OC)cc(OC)c3)C2C(=O)NC(C)(C)C)cc1 (configuration not stated)
  A: i	B: 2	C: 4	D: 5.5	E: 5.6

> Cc1noc(C)c1S(=O)(=O)Nc1ccc2c(c1)CC(=O)N([C@@H](C)CO)C[C@H](C)[C@H](CN(C)Cc1ccc3c(c1)OCO3)O2
  A: i	B: -4	C: -2	D: 1.2	E: -21

> CO[C@@H]1CN(C)C(=O)c2ccc(NC(=O)Nc3cc(Cl)cc(Cl)c3)cc2OC[C@H](C)NC[C@@H]1C
  A: i	B: -2&-61	C: 2&-83	D: 11&-16	E: 12

> CCC(=O)N1C[C@H](O)COC[C@@H]2O[C@@H](CC(=O)NCC3CCCCC3)CC[C@H]21
  A: i	B: 9	C: 8	D: 4.8	E: -0.5

> CCNC(=O)C[C@H]1C=C[C@@H](NS(=O)(=O)c2ccc(F)cc2)[C@H](CO)O1
  A: i	B: 0	C: 2	D: -0.3	E: -0.5

> N#C[C@@H]1[C@H](c2ccc(C3=CCCC3)cc2)[C@H](CO)N1C(=O)C1CCCC1
  A: i	B: 2	C: -1	D: -0.4	E: -0.6

> CCCNC(=O)C[C@H]1CC[C@H]2[C@H](COc3ccc(NC(=O)Cc4ccccc4)cc3C(=O)N2C)O1
  A: i	B: 1	C: 2	D: -0.7	E: 1.8

> CN(C)C(=O)C[C@H]1C[C@@H]2c3cc(NC(=O)Nc4ccc(F)cc4)ccc3O[C@@H]2[C@H](CO)O1
  A: i	B: 0	C: 2	D: -1.1	E: -0.5

> O=C(Nc1ccc(C(=O)O)cc1)/C(=C\c1ccco1)NC(=O)c1ccc(Br)cc1
  A: i	B: 10	C: 0	D: 2.2	E: -1.1

> CCOC(=O)[C@]12CCCC=C1N(Cc1ccc(Cl)cc1Cl)C(=O)[C@H](CC(=O)NCc1cccs1)C2
  A: i	B: 1	C: 1	D: 1.0	E: 0.0

> O=C(Nc1ccccc1)N1CCCCN2[C@H](CO)[C@@H](c3ccc(Br)cc3)[C@@H]2C1
  A: i	B: -10	C: -20	D: -4.3	E: -5.8

> CN1CCN(C(=O)C[C@@H]2CC[C@H](NC(=O)Nc3ccccc3F)[C@H](CO)O2)CC1
  A: i	B: -2	C: -3	D: -1.9	E: 0.5

Three of the entries above in order of their number in rRNA inh HTS OD600, falling:
SMILES | rRNA inh HTS OD600
CCNC(=O)C[C@H]1C=C[C@@H](NS(=O)(=O)c2ccc(F)cc2)[C@H](CO)O1 | 2
O=C(Nc1ccc(C(=O)O)cc1)/C(=C\c1ccco1)NC(=O)c1ccc(Br)cc1 | 0
O=C(Nc1ccccc1)N1CCCCN2[C@H](CO)[C@@H](c3ccc(Br)cc3)[C@@H]2C1 | -20

The listing picks up; the 5 compounds before the break are reprinted first.
Assay codes – A = FGF22 binding; B = rRNA inh HTS; C = rRNA inh HTS OD600; D = rRNA inh HTS RFP; E = MLL AF4-AF9 inh
> CN(C)C(=O)C[C@H]1C[C@@H]2c3cc(NC(=O)Nc4ccc(F)cc4)ccc3O[C@@H]2[C@H](CO)O1
  A: i	B: 0	C: 2	D: -1.1	E: -0.5

> O=C(Nc1ccc(C(=O)O)cc1)/C(=C\c1ccco1)NC(=O)c1ccc(Br)cc1
  A: i	B: 10	C: 0	D: 2.2	E: -1.1

> CCOC(=O)[C@]12CCCC=C1N(Cc1ccc(Cl)cc1Cl)C(=O)[C@H](CC(=O)NCc1cccs1)C2
  A: i	B: 1	C: 1	D: 1.0	E: 0.0

> O=C(Nc1ccccc1)N1CCCCN2[C@H](CO)[C@@H](c3ccc(Br)cc3)[C@@H]2C1
  A: i	B: -10	C: -20	D: -4.3	E: -5.8

> CN1CCN(C(=O)C[C@@H]2CC[C@H](NC(=O)Nc3ccccc3F)[C@H](CO)O2)CC1
  A: i	B: -2	C: -3	D: -1.9	E: 0.5

> O=C(NC1CCCC1)N1CCCCN2[C@@H](CO)[C@@H](c3ccc(/C=C/c4ccccc4)cc3)[C@@H]2C1
  A: i	B: -58	C: -74	D: -18	E: 28*

> Cc1ccc(S(=O)(=O)N(C)C[C@H]2Oc3ccc(NS(C)(=O)=O)cc3CC(=O)N([C@H](C)CO)C[C@H]2C)cc1
  A: i	B: 2	C: 0	D: 0.4	E: -12

> COc1ccc(CN(C)C[C@H]2Oc3c(NS(=O)(=O)c4ccc(C)cc4)cccc3C(=O)N([C@@H](C)CO)C[C@H]2C)cc1
  A: i	B: -4	C: -23	D: -4.0	E: 1.1

> COc1ccc(NC(=O)N(C)C[C@@H]2Oc3c(NS(=O)(=O)c4ccc(C)cc4)cccc3C(=O)N([C@@H](C)CO)C[C@@H]2C)cc1
  A: i	B: -2	C: -4	D: 3.4	E: -1.0

> C[C@@H]1CN([C@H](C)CO)C(=O)c2cc(-c3cccc(C#N)c3)cnc2O[C@H]1CN(C)C(=O)C1CCCCC1
  A: i	B: -2	C: 1	D: 0.1	E: 3.1

> COc1ccc(OC)c(NC(=O)C2(C)CCN2Cc2ccsc2)c1 (configuration not stated)
  A: i	B: -11	C: -11	D: 2.1	E: 1.4

> CS(=O)(=O)Nc1ccc2c(c1)[C@@H]1C[C@@H](CC(=O)NC3CCCC3)O[C@H](CO)[C@@H]1O2
  A: i	B: -2	C: -1	D: -3.4	E: -7.6

Compound activity: PubChem BioAssay, Broad Institute
